# Screening data (PubChem)
# Sa growth 42C: inhibitors of Staphylococcus aureus growth at 42 °C. S. aureus RN4220 growth, OD600, 20 h; stronger effect = lower value. relative growth, % (test concentration not listed). hit rate 0.53% among 170,000. AID 720641;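 active = growth at 42 °C up to 50% and 20 or more points under that at 30 °C, or under 10% at both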;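 note: 300 nL library stock went into each well; scaled to the means of positive and negative controls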
# GIV-Gai inh: blocks GIV peptide binding to rat Galpha-i3; Galpha-i3/FITC-GIV peptide fluorescence polarization, 90 min; stronger effect = lower value; scaled: aluminum fluoride 0%, vehicle 100%; hit rate 0.42% among 210,000; AID 1224905; P08753; percent of control (FP), % (test concentration not listed);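 active = replicate mean at 85% of control or lower, very high polarization wells dropped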;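 note: wells of about 15 µL received 100 nL stock; the first replicate is given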
# Target sequence (P08753 whole entry, looked up): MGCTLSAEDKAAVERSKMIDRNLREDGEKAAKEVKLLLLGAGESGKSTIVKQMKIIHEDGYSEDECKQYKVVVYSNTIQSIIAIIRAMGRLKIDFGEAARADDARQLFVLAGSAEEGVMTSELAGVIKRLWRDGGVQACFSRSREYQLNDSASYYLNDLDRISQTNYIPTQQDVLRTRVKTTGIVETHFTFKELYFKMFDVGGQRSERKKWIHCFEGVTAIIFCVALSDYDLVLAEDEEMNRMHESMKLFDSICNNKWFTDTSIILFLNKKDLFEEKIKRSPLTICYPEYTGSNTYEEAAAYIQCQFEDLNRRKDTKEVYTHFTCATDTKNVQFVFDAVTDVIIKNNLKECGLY
# HCMV UL50-53 inh: cytomegalovirus nuclear egress complex inhibition | HTRF UL50-UL53 interaction, normalized percent inhibition | inhibition, % (test concentration not listed) | hit rate 0.15% among 190,000 | AID 1918969;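 active = both replicates at 50% or more, plus weaker picks with an unusually low signal ratio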;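 note: stock transfer was 100 nL into about 20 µL; 0% = negative control wells and 100% = wells with untagged competitor protein; inactives centre near -12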
# Sa growth 42C second temp: recorded beside Sa growth 42C, whose call it bears; relative growth, %; measured here: growth at 30 °C;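 optical density after 20 h as mean of two plates; 100% = untreated growth and lower means inhibition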
# The depositor's hits bear a star; . = no result given; & = joins results of further samples.
no.	Compound	Sa growth 42C second temp	Sa growth 42C
1	CC(=O)N1CCN(C(=O)c2cn(-c3ccccc3)nc2-c2ccc(C)cc2)CC1	81	115
2	O=C(O)CC(Sc1cccs1)C(=O)O (centres undefined)	91	103
3	Cc1ccc(CSCC(=O)Nc2ccccc2)cc1	94	110
4	CCOC(=O)C(C)Oc1ccc2c(=O)c(-c3csc(C)n3)coc2c1 (centres undefined)	80	101
5	O=C1S/C(=C/c2ccc(F)cc2)C(=O)N1CN1CCCCC1	32	71
6	CCOC(=O)c1[nH]c(C)c(CCC(=O)N2CCN(c3cccc(C)c3C)CC2)c1C	88	124
7	O=C(O)/C=C/c1ccc(S(=O)(=O)Nc2cccc(C(=O)O)c2)cc1	103	77
8	Cc1ccc(CNc2cc(C(C)C)nc3nc(-c4cccnc4)nn23)cc1	.	.

no.	GIV-Gai inh	HCMV UL50-53 inh
1	.	-28
2	.	-6
3	.	-4
4	106	.
5	98	-35
6	109	.
7	.	-29
8	107	-21

# Continuation.
no.	Compound	Sa growth 42C second temp	Sa growth 42C
9	O=C(CN(Cc1ccccc1)S(=O)(=O)c1ccccc1)NC1=NCCS1	96	92
10	COc1ccc(C(=O)O)cc1S(=O)(=O)N(C)c1ccccc1	103	87
11	O=C(NCc1ccccc1)C1C2CCCCC21 (centres undefined)	95	107
12	CCN1CCN(CCNC(=O)c2ccc(CS(=O)c3ccccc3C)o2)CC1 (centres undefined)	93	81
13	CSc1cccc(NS(=O)(=O)c2ccc3[nH]cc(C(=O)N(C)CCC#N)c(=O)c3c2)c1	85	84
14	CCCNC(=O)Cn1c(=O)c2c(OCC)c(C)cnc2n(C)c1=O	.	.
15	CCOC(=O)c1c(C)oc2nc(C)nc(Nc3cc(C)ccc3OC)c12	89	103
16	Cn1nc(C(F)(F)F)c(-c2ccc(Br)cc2)c1NC(=O)c1ccco1	54	69

no.	GIV-Gai inh	HCMV UL50-53 inh
9	.	-14
10	95	-5
11	.	-3
12	107	-35
13	111	0
14	106	-4
15	112	.
16	107	-35

# Sorted by the number under GIV-Gai inh (largest number first): three from the list above
No.	molecule	GIV-Gai inh
15	CCOC(=O)c1c(C)oc2nc(C)nc(Nc3cc(C)ccc3OC)c12	112
13	CSc1cccc(NS(=O)(=O)c2ccc3[nH]cc(C(=O)N(C)CCC#N)c(=O)c3c2)c1	111
12	CCN1CCN(CCNC(=O)c2ccc(CS(=O)c3ccccc3C)o2)CC1 (centres undefined)	107

# Rewritten bar-delimited: entries from further up.
cpd | compound | Sa growth 42C second temp | Sa growth 42C | GIV-Gai inh | HCMV UL50-53 inh
16 | Cn1nc(C(F)(F)F)c(-c2ccc(Br)cc2)c1NC(=O)c1ccco1 | 54 | 69 | 107 | -35
5 | O=C1S/C(=C/c2ccc(F)cc2)C(=O)N1CN1CCCCC1 | 32 | 71 | 98 | -35

# The list continues.
no.	Compound	Sa growth 42C second temp	Sa growth 42C
17	COc1ccc(-c2cc3nc(C)cc(N4CCCC4)n3n2)cc1OC	.	.
18	COc1cccc(-c2nnc(-c3ccc(C)o3)o2)c1	70	108
19	CCOc1ccccc1N(C)C(=O)Cc1noc2ccccc12	83	108
20	O=c1c(Cl)c(N2CCCCC2)cnn1-c1ccccc1	93	109
21	Cc1ccc(NC(=O)C2CCCN(c3nnc(C)c4c(C)n(-c5ccccc5)nc34)C2)c(Cl)c1 (centres undefined)	88	94
22	CCOc1ccc(NC(=O)c2cnn(-c3ccc(C)c(Cl)c3)c2C2CCNCC2)cc1	91	88
23	COc1ccc2cc3c(nc2c1)N(C(=O)c1ccc(OC)c(OC)c1)CC3	.	.
24	Cc1c(C)n(Cc2ccc(F)cc2)c2ccc(C(=O)NCc3ccco3)cc12	90	92

no.	GIV-Gai inh	HCMV UL50-53 inh
17	103	-32
18	106	-28
19	104	-15
20	104	.
21	101	.
22	99	.
23	109	-16
24	104	.

# Random excerpt: four entries already listed, in no set order.
no.	Compound	Sa growth 42C second temp	Sa growth 42C
18	COc1cccc(-c2nnc(-c3ccc(C)o3)o2)c1	70	108
23	COc1ccc2cc3c(nc2c1)N(C(=O)c1ccc(OC)c(OC)c1)CC3	.	.
21	Cc1ccc(NC(=O)C2CCCN(c3nnc(C)c4c(C)n(-c5ccccc5)nc34)C2)c(Cl)c1 (centres undefined)	88	94
20	O=c1c(Cl)c(N2CCCCC2)cnn1-c1ccccc1	93	109

no.	GIV-Gai inh	HCMV UL50-53 inh
18	106	-28
23	109	-16
21	101	.
20	104	.

# The list goes on.
no.	Compound	Sa growth 42C second temp	Sa growth 42C
25	CSc1ccc(CCNC(=O)c2ccc3c(c2)nc2n3CCOC2)cc1	88	92
26	CC(=O)Nc1ccc(S(=O)(=O)N2CC(OCc3ccc(C)cc3)C2)cc1	.	.
27	Cc1ccccc1Cn1c(=O)n(-c2ccc(Cl)cc2)c(=O)c2c3c(sc21)CCCC3	95	112
28	CC1Cc2ccccc2N1CC(=O)NCc1cccs1 (centres undefined)	91	104
29	O=C(COc1ccc(F)cc1)Nc1cccc(OCc2cc(=O)n3ccccc3n2)c1	86	86
30	Oc1ccccc1-c1csnn1	.	.
31	Cc1nc2ccc(S(=O)(=O)N(CC(=O)Nc3cccc(F)c3)Cc3ccccc3)cc2s1	86	95
32	Cc1c(NC(=O)c2cnn3c2NC(c2ccc4c(c2)OCO4)CC3C(F)(F)F)c(=O)n(-c2ccccc2)n1C (centres undefined)	.	.

no.	GIV-Gai inh	HCMV UL50-53 inh
25	105	.
26	102	-10
27	105	-14
28	.	-16
29	103	.
30	105	-25
31	103	.
32	94	-18

# Next entries follow.
no.	Compound	Sa growth 42C second temp	Sa growth 42C
33	O=C(CCSc1nnc(-c2ccccc2)o1)Nc1ccc(F)cc1	90	108
34	Nc1c(Sc2ccccc2)cc(Sc2ccccc2)c2c1C(=O)c1ccccc1C2=O	.	.
35	CCOC(=O)c1[nH]c2ccccc2c1NC(=O)c1ccc(OC(C)C)cc1	99	104
36	COc1ccc(C)cc1S(=O)(=O)N1CCc2cc3cccc(C)c3nc21	.	.
37	Cc1cc(C(=O)NCC(C)c2ccccc2)c2c(=O)n(C)c(=O)n(C)c2n1 (centres undefined)	.	.
38	CN(C)S(=O)(=O)N(C)Cc1ccccc1	98	106
39	COc1ccccc1N1CCNCC1=O	91	82
40	Cc1cc(C)c2c(n1)SCCN2C(=O)Nc1ccc(C(=O)N2CCCCC2)cc1	97	103

no.	GIV-Gai inh	HCMV UL50-53 inh
33	101	-11
34	102	-8
35	108	-7
36	101	-29
37	107	-8
38	103	7
39	101	-2
40	102	-15

# The list goes on.
no.	Compound	Sa growth 42C second temp	Sa growth 42C
41	CCn1ccc2cc(S(=O)(=O)N3CCC(C(=O)NCCc4ccccc4)CC3)ccc21	87	79
42	O=S(=O)(Nc1ccc2nnc(-c3cccc(Br)c3)n2n1)c1ccc(Cl)cc1	.	.
43	O=S(=O)(NNc1ccc(F)cc1F)c1ccc(Cl)cc1	101	110
44	Nc1nonc1C(=O)NN=c1c(=O)c2ccccc2c1=O	54	87
45	Cc1ccc(/C=C/C(=O)Nc2ccccc2C(F)(F)F)c(C)c1	89	115
46	COc1ccc(-c2cc(=O)oc3cc(O)c(Cl)cc23)cc1	91	110
47	CC(c1ccccc1)n1cnc2cc(N)ccc21 (centres undefined)	102	111
48	CCOC(=O)c1ccc2nc(C(F)(F)F)nc(NCCCN3CCOCC3)c2c1	76	85

no.	GIV-Gai inh	HCMV UL50-53 inh
41	105	.
42	105	-36
43	104	-14
44	80*	-20
45	.	0
46	101&103	-75&-57
47	106	-6
48	105	-21

# Single entries from the list:
# Reading for no. 48 under Sa growth 42C: 85
# Reading for no. 41 under Sa growth 42C second temp: 87
# Reading for no. 45 under Sa growth 42C: 115
# Reading for no. 47 under GIV-Gai inh: 106

# Other entries
no.	Compound	Sa growth 42C second temp	Sa growth 42C
49	N#Cc1cccc(NC(=O)Cn2nc(Cc3ccncc3)c3ccccc3c2=O)c1	107	98
50	Cc1ccsc1Cn1c(C)ccc1C	76	93
51	COc1cccc(C2CC(=O)Nc3c2c(=O)[nH]c2ncnn32)c1OC (centres undefined)	86	109
52	CCC1(c2cccc(OC(=O)Nc3ccc(OC(F)(F)F)cc3)c2)CCCCN(C)C1=O (centres undefined)	23*	4.2*
53	O=[N+]([O-])c1cc(-c2nc(-c3ccccc3)no2)ccc1NC1CCCCC1	82	97
54	CCN(CC)CCNC(=O)c1sc2ncccc2c1-n1cccc1	92	83
55	Cc1ccccc1NC(=O)Cc1nnc(SCC(=O)c2ccccc2)n1C	99	101
56	N#Cc1ccc(-c2cccnc2)n(CC(=O)NCc2ccccc2)c1=O	78	109

no.	GIV-Gai inh	HCMV UL50-53 inh
49	106	-4
50	114	-23
51	102	-18
52	103	-12
53	100	-22
54	103	.
55	103	-32
56	109	-6

# Continued:
no.	Compound	Sa growth 42C second temp	Sa growth 42C
57	COC(=O)c1cc(-c2ccc(Cl)cc2)on1	80	111
58	CCOC(=O)C(NC(=O)Cn1c2ccccc2c(=O)c2ccccc21)C(=O)OCC	.	.
59	Clc1ccc2oc(-c3cccnc3)nc2c1	76	113
60	CC(C)Oc1ccc(CNC(=O)c2ccc(Cn3c(=O)c4cccn4c4cccnc43)cc2)cc1	86	90
61	FC(F)Oc1ccc(Cl)cc1CSc1ncccn1	88	88
62	CCOc1ccc(-c2nc(Cn3c(=O)cc(-c4ccccc4)c4c(C)nn(C)c43)c(C)o2)cc1	99	88
63	CC(C)CCNC(=O)C1CCN(S(=O)(=O)N2CCCCC2)CC1	93	79
64	Cc1ccc(S(=O)(=O)N(C)c2nc3nc(C)cc(C)n3n2)cc1	.	.

no.	GIV-Gai inh	HCMV UL50-53 inh
57	.	-5
58	104	-45
59	107	.
60	105	.
61	.	-15
62	100	.
63	101	.
64	108	-28

# Continuation.
no.	Compound	Sa growth 42C second temp	Sa growth 42C
65	CN1[C@@H]2CC[C@H]1CC(OC(=O)c1c[nH]c3ccccc13)C2 (some centres undefined)	82&97	92&100
66	Nn1c(SCC(=O)Nc2ccc3c(c2)OCO3)nnc1-c1ccc(Cl)cc1	68	107
67	O=C(NCC1CCCO1)c1cc2c(s1)-c1ccccc1OC2 (centres undefined)	68	98
68	O=C(Nc1ccc(Cl)cc1)N1CCN(c2ccc3nnc(-c4ccc(F)cc4)n3n2)CC1	88	77
69	CC(=O)Nc1cccc(NC(=O)CSc2nccn2Cc2ccco2)c1	90	128
70	CC1(C)CCCC(C)(C)N1OC(=O)c1ccc(N)cc1	75	92
71	O=C1C=CC(=O)N1Nc1ccccc1	84	87
72	Cc1ccc2nc(C3CCCCC3)cc(C(=O)O)c2c1	96	98

no.	GIV-Gai inh	HCMV UL50-53 inh
65	101	-31&1
66	.	-12
67	111	.
68	104	-2
69	105	.
70	.	-9
71	105	-30
72	104	-36

# Other compounds.
no.	Compound	Sa growth 42C second temp	Sa growth 42C
73	COC(=O)c1scc(S(C)(=O)=O)c1NC(=O)c1ccccc1Cl	87	92
74	Nc1cccc(-c2ccc(CO)o2)c1	78	106
75	c1ccc2c(-c3csc(-c4ccncc4)n3)c[nH]c2c1	63	73
76	Clc1ccccc1CNc1ncnc2c(-c3ccccc3)noc12	.	.
77	COc1ccc(C2C3(C#N)C(N)=NC(OC)(OC)C23C#N)cc1 (centres undefined)	70	89
78	Cc1c(Cl)ccc2sc(NC(=O)c3ccc(S(=O)(=O)N4CCCc5ccccc54)cc3)nc12	92	88
79	O=C(NCc1ccccc1)NC1CCCCC1	97	119
80	Cc1occc1-c1nnc2sc(COc3ccc(Cl)cc3)nn12	.	.

no.	GIV-Gai inh	HCMV UL50-53 inh
73	99	-6
74	105	.
75	.	-49
76	103	-17
77	103	.
78	98	.
79	100	-10&-11&17
80	108	-16

# Next compounds
no.	Compound	Sa growth 42C second temp	Sa growth 42C
81	Cc1cc(=O)[nH]c(N2CCN(Cc3ccccc3)CC2)n1	84	110
82	CCc1ccc(-n2nc(C)c3c(C(=O)Nc4cc(C)ccc4C)cc(C)nc32)cc1	84	93
83	Cc1nc(S(=O)(=O)Nc2ccccc2)cn1C	.	.
84	CCN(CC)S(=O)(=O)c1ccc2c(c1)N(CC(=O)NCc1ccc(F)cc1)C(=O)CO2	89	103
85	Cc1ccc(N2CCn3c(nc4ccccc43)C2)cc1NC(=O)CC(C)C	.	.
86	O=C(Nc1ccc(N2CCOCC2)c(C(=O)O)c1)c1ccc(Br)cc1	98	119
87	CCC(=O)Nc1cc(-c2nc3ccccc3s2)c(Cl)cc1Cl	103	90
88	COc1ccccc1NC(=O)Cn1ccn(-c2cc(C)cc(C)c2)c(=O)c1=O	94	102

no.	GIV-Gai inh	HCMV UL50-53 inh
81	.	-14
82	101	.
83	104	-14
84	101	-14
85	106	-11
86	107	.
87	108	-2
88	102	-22
